# M. tuberculosis: growth inhibition of non-replicating M. tuberculosis (AID 488890) | inhibition, % at 25 µM; hits with a dose series show IC50 in µM | actives 0.39% (n = 320,000) | Mycobacterium tuberculosis non-replicating, growth inhibition; higher % means a stronger effect; in the data active = a potency from the dose series; inconclusive = inhibition mostly from about 82% at the one dose, without a potency; inactive = the rest, 99 in 100 with inhibition below about 76%;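 also: plate controls were DMSO cells for no effect and high antibiotic wells for full effect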
# inhibitors of VEEV: inhibitors of VEEV TC-83 cytopathic effect, confirmation, Vero cells (AID 588727) | actives 0.13% (n = 350,000) | inhibition, % at 20 µM, or IC50 in µM where a hit was titrated | Vero cells, VEEV TC-83 cytopathic effect inhibition; higher % means a stronger effect; in the data active = a potency from the dose series; inconclusive = inhibition mostly from about 14% at the one dose, without a potency; inactive = the rest, 99 in 100 with inhibition below about 12%; also: strong numbers were not always called active
# H37Rv inhibition: M. tuberculosis growth inhibition, HTS (AID 449762) | M. tuberculosis H37Rv growth inhibition, 7H9 media; higher % means a stronger effect | one-dose inhibition, % at 25 µM; IC50 in µM for titrated hits | actives 0.59% (n = 330,000); in the data active = a potency from the dose series; inconclusive = inhibition above about 70% without an active follow-up result;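 also: bacterial growth assessed after seven days of incubation; strong numbers were not always called active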
# An asterisk follows results filed as active; i = inactive; u = inconclusive; x = not tested or not shown.
O=C(Nc1ccccc1)Oc1ccc[nH]c1=O
  M. tuberculosis = -12%
  inhibitors of VEEV = 1.0%
  H37Rv inhibition = -5%

Cc1cn([C@H]2C[C@H](N=[N+]=[N-])[C@@H](CO)O2)c(=O)[nH]c1=O
  M. tuberculosis = -7%
  inhibitors of VEEV = 3.2%
  H37Rv inhibition = 12%

COc1c(N2C[C@@H]3CCCN[C@@H]3C2)c(F)cc2c(=O)c(C(=O)O)cn(C3CC3)c12
  M. tuberculosis = u
  inhibitors of VEEV = 2.2%
  H37Rv inhibition = u

CC(=O)Nc1cccc(NC(=O)CSc2ccc(-c3ccccn3)nn2)c1
  M. tuberculosis = 38%
  inhibitors of VEEV = i
  H37Rv inhibition = 4%

COc1cc(OC)cc(C(=O)NC(=S)NNC(=O)c2cnccn2)c1
  M. tuberculosis = -15%
  inhibitors of VEEV = 4.5%
  H37Rv inhibition = -4%

CN1CCCC1c1cccnc1 (stereo unspecified)
  M. tuberculosis = -14%
  inhibitors of VEEV = 1.0%
  H37Rv inhibition = -13%

O=C1c2ccccc2C2=Nc3ccccc3SC(c3ccc(Cl)cc3)C12 (stereo unspecified)
  M. tuberculosis = -4%
  inhibitors of VEEV = 3.9%
  H37Rv inhibition = 65%

Cn1cc2cccc([N+](=O)[O-])c2n1
  M. tuberculosis = 10%
  inhibitors of VEEV = 1.7%
  H37Rv inhibition = -1%

O=C(NCCCc1ccccc1)Nc1ccccc1
  M. tuberculosis = 38%
  inhibitors of VEEV = 0.4%
  H37Rv inhibition = 1%

COc1ccc(NC(=O)COC(=O)CC23CC4CC(CC(C4)C2)C3)c([N+](=O)[O-])c1
  M. tuberculosis = 71%
  inhibitors of VEEV = 1.5%
  H37Rv inhibition = 6%

COC(=O)c1ccccc1NC1=C/C(=N\S(=O)(=O)c2cccs2)c2ccccc2C1=O
  M. tuberculosis = 73%
  inhibitors of VEEV = 27%
  H37Rv inhibition = u

O=C(CSc1nnc(C2COc3ccccc3O2)o1)Nc1nccs1 (stereo unspecified)
  M. tuberculosis = 14%
  inhibitors of VEEV = 0.2%
  H37Rv inhibition = 1%

CCc1ccccc1NC(=S)N(CCN(C)C)C(C)c1ccccn1 (stereo unspecified)
  M. tuberculosis = -11%
  inhibitors of VEEV = i
  H37Rv inhibition = 3%

COc1ccc(Nc2ccc(OC)cc2)cc1
  M. tuberculosis = u
  inhibitors of VEEV = 1.3%
  H37Rv inhibition = 2%

CC(Cc1ccccc1)NCCC(c1ccccc1)c1ccccc1 (stereo unspecified)
  M. tuberculosis = u
  inhibitors of VEEV = 0.6%
  H37Rv inhibition = u

# As entered above:
# `O=C(NCCCc1ccccc1)Nc1ccccc1` in H37Rv inhibition is listed with 1%
# `O=C1c2ccccc2C2=Nc3ccccc3SC(c3ccc(Cl)cc3)C12` (stereo unspecified) in H37Rv inhibition is listed with 65%

# Next results.
CC12CN3CC(C)(CN(C1)C3c1ccc(Br)cc1O)C2 (stereo unspecified)
  M. tuberculosis = -5%
  inhibitors of VEEV = 1.3%
  H37Rv inhibition = -4%

CO[C@@]12[C@@H]3N[C@@H]3CN1C1=C(C(=O)C(N)=C(C)C1=O)[C@@H]2COC(N)=O
  M. tuberculosis = x
  inhibitors of VEEV = i
  H37Rv inhibition = x

O=C(/C=C/c1ccccc1Cl)Nc1cccc(O)c1
  M. tuberculosis = -13%
  inhibitors of VEEV = 1.7%
  H37Rv inhibition = -10%

O=C(Oc1c(Br)cc([N+](=O)[O-])cc1Br)c1cccnc1
  M. tuberculosis = 79%
  inhibitors of VEEV = 0.6%
  H37Rv inhibition = 13%

N=C(N)c1ccc(OCCCCCOc2ccc(C(=N)N)cc2)cc1
  M. tuberculosis = u
  inhibitors of VEEV = i
  H37Rv inhibition = u

Nc1ccc2ncccc2c1
  M. tuberculosis = 46%
  inhibitors of VEEV = 1.4%
  H37Rv inhibition = -4%

NCCS(=O)(=O)O
  M. tuberculosis = -8%
  inhibitors of VEEV = i
  H37Rv inhibition = -7%

O=C(NNC(=S)Nc1ccc(Cl)c(Cl)c1)c1ccccn1
  M. tuberculosis = -11%
  inhibitors of VEEV = 11%
  H37Rv inhibition = 7%

O=C1C(Cl)=C(NCc2cccnc2)C(=O)c2ccccc21
  M. tuberculosis = 73%
  inhibitors of VEEV = 6.3%
  H37Rv inhibition = u

CSc1nc2ccc(Cl)cc2[nH]1
  M. tuberculosis = 7%
  inhibitors of VEEV = i
  H37Rv inhibition = 3%

c1ccc2c(c1)[nH]c1ccccc12
  M. tuberculosis = -1%
  inhibitors of VEEV = 0.6%
  H37Rv inhibition = -2%

# Entries of single compounds as entered above.
# `COc1c(N2C[C@@H]3CCCN[C@@H]3C2)c(F)cc2c(=O)c(C(=O)O)cn(C3CC3)c12` across the screens: M. tuberculosis: u; inhibitors of VEEV: 2.2%; H37Rv inhibition: u
# `O=C1c2ccccc2C2=Nc3ccccc3SC(c3ccc(Cl)cc3)C12` (stereo unspecified) across the screens: M. tuberculosis: -4%; inhibitors of VEEV: 3.9%; H37Rv inhibition: 65%
# `COc1cc(OC)cc(C(=O)NC(=S)NNC(=O)c2cnccn2)c1` across the screens: M. tuberculosis: -15%; inhibitors of VEEV: 4.5%; H37Rv inhibition: -4%

# Of the compounds above, 2 contain two or more sulfur atoms:
COC(=O)c1ccccc1NC1=C/C(=N\S(=O)(=O)c2cccs2)c2ccccc2C1=O
  M. tuberculosis = 73%
  inhibitors of VEEV = 27%
  H37Rv inhibition = u

O=C(CSc1nnc(C2COc3ccccc3O2)o1)Nc1nccs1 (stereo unspecified)
  M. tuberculosis = 14%
  inhibitors of VEEV = 0.2%
  H37Rv inhibition = 1%

# Screening data deposited in PubChem by Southern Research Specialized Biocontainment Screening Center.

# An excerpt; the hit share may differ from the screen's.
